Screening results: PubChem BioAssay, several laboratories
RecA splice inh – blocks M. tuberculosis RecA intein splicing | cell-free RecA intein splicing, fluorescence | 290,000 compounds, 0.75% hits | inhibition, %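 (about 9 µM by stock and volumes)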 | P9WHJ3 | AID 2221; in the data active = inhibition above about 30%; inconclusive = no clear call, values can overlap the other calls;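 note: 0% = vehicle wells and 100% = reference inhibitor control wells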
Target sequence (P9WHJ3 whole entry, looked up, canonical isoform): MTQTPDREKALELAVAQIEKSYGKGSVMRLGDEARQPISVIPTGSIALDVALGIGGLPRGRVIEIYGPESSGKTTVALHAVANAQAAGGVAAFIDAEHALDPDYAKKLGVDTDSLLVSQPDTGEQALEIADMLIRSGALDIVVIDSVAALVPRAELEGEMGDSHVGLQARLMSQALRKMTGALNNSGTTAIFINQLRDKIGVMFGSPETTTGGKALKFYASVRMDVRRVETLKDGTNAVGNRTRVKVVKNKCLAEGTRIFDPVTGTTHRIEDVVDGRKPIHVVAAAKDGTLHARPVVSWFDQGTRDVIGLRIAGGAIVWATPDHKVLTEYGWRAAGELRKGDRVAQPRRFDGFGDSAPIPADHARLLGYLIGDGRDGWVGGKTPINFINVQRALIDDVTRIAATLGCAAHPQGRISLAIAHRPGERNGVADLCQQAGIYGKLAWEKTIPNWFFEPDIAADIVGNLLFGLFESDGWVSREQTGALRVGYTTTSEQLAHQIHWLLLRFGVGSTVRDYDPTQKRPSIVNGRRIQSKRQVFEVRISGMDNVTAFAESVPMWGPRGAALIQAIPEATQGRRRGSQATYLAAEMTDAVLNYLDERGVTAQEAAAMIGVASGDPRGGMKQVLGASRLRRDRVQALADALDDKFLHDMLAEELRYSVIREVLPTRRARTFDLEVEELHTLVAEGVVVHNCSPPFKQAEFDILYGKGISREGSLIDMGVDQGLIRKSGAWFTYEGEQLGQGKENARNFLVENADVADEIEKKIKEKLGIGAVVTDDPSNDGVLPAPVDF
Mtb growth – M. tuberculosis H37Rv growth inhibitors, H37Rv strain (AID 1626) | 220,000 compounds, 0.95% hits | one-dose inhibition, % at 10 µM; IC50 in µM for titrated hits | M. tuberculosis H37Rv growth inhibition; higher % means a stronger effect;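 active = confirmed in a dose series; inconclusive = inhibition above 80% but not taken into the dose series; inactive = below 80% or under 30% at every dose of the series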;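 note: bacteria incubated seven days before Alamar blue readout; 0% = bacteria only wells and 100% = bacteria with antibiotic wells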
YopH inh – blocks Yersinia enterocolitica YopH tyrosine phosphatase; fluorescence Ex485/Em525; AID 898; 140,000 compounds, 0.16% hits; inhibition, %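 (about 10 µM by stock and volumes)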;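 active = inhibition of 50% or more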;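 note: controls were vehicle for no effect and minimum signal wells for full effect; inactives centre near -20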
Arbovirus anti – arbovirus infection inhibition | AID 1251 | inhibition, % at 10 µM | 200,000 compounds, 0.37% hits | arbovirus infection cell-based antiviral screen;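 active = inhibition from about 30%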;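 note: bluetongue infection of BSR cells; cell survival read as ATP light after 72 h; 0% = infected wells without compound and 100% = uninfected wells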
Mtb bLac sens – beta-lactam sensitization of Mtb H37Rv. inhibition, % at 25 µM. M. tuberculosis H37Rv growth with meropenem, percent inhibition; hits of this screen are not shown here. AID 434955. 330,000 compounds, 0.27% hits;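 active = about 74% or more and at least 40 points above the plate without the antibiotic, then above 30% in a dose series; inconclusive = first-round hits that could not be retested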;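 note: growth measured after seven days incubation then overnight dye step; 0% = bacteria only wells and 100% = bacteria with antibiotic; twin plates without the antibiotic show which effects depend on it; some results filed as inactive read as strong as hits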
Arbovirus anti repeat – also measured in Arbovirus anti; calls as there; inhibition, %; measured here: 10K subset replicate screen; many hits read low in the repeat;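 first of two repeat runs on a subset; 0% = infected and 100% = uninfected wells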
* marks the source's active call; other numbers are inactive results; ? = inconclusive; . = no result given. These rows are one share of the data (hit frequency here may not be typical).

SMILES	RecA splice inh	Mtb growth	YopH inh	Arbovirus anti	Mtb bLac sens	others
O=C(NCc1ccncc1)C(=O)C1C(=O)Nc2ccccc21 (stereo not drawn)	-1.5	-15%	.	-1	0
Cc1nn2cnnc2c(C)c1Cc1c(F)cccc1Cl	1.4	.	.	.	0
CCC(C)NC(=O)CN1C(=O)NC2(CCc3ccccc3C2)C1=O (stereo not drawn)	0.6	3%	.	3	0
O=C(NCCn1cccn1)C1CCC(=O)N(CC2CCCCC2)C1 (stereo not drawn)	-0.1	.	.	.	-4
O=c1/c(=C/c2cn(-c3ccccc3)nc2-c2ccc(F)cc2)sc2nc3ccccc3n12	.	-9%	3	1	.
CCOC(=O)N1CCC(Nc2c(-c3ccc(C)c(C)c3)c(=O)c2=O)CC1	1.2	-7%	-41	2	2
CCCCC(=O)N(Cc1nc2sc(C)c(C)c2c(=O)[nH]1)C1CCCC1	-2.8	5%	.	-4	-1
N#Cc1nc(-c2ccco2)oc1NCc1ccc(F)cc1	1.3	14%	-55	10	-8
CCc1ccc(NC(=O)CSc2nnnn2-c2cccnc2)cc1	-0.7	.	.	.	4
CCN1CCCc2cc(CN(CCN3CCOCC3)C(=S)Nc3cccc(C)c3)ccc21	2.9	0%	.	6	-5
O=c1[nH]snc1-c1c(Cl)cccc1Cl	-1.1	-2%	.	.	-8
Cc1ccnc(SCC(=O)N2CCc3ccccc32)n1	-5.1	.	.	.	-2
O=C(NCc1nnc(SCC(=O)N2CCOCC2)o1)c1c(F)cccc1Cl	0.8	-2%	.	0	-10
CCN1CCn2c3c(c4cc(Br)ccc42)CCCC31 (stereo not drawn)	0.5	2%	-111	.	54
CCCN1CCN(CCCNC(=O)Cn2cc3c(n2)CCCC3)CC1	-3.9	-4%	-41	7	-2	Arbovirus anti repeat=3
CC(=O)Nc1sc(N/N=C/c2ccc(C)cc2)nc1-c1ccc(C)cc1	-1.3	19%	.	.	-9
O=C(NC1CCN(S(=O)(=O)c2cccc(F)c2)CC1)c1ccc(F)cc1	-1.2	.	.	.	-3
COc1ccc(N2C(=O)Cc3ccccc3C2=O)cc1	12	.	.	.	3
CCn1c(=O)c2ccccc2n2c(SCC(=O)NCc3cccs3)nnc12	-1.1	-3%	-51	0	-11
CCOC(=O)c1nn(-c2ccc([N+](=O)[O-])cc2)cc1O	0.1	-1%	.	.	48
COCCn1c(SC(C)C(=O)Nc2ncc(Cl)cc2Cl)nc2ccccc21 (stereo not drawn)	2.4	5%	-14	31*	4
COc1ccc(-n2c(SC(C)C(=O)Nc3ccc(NC(C)=O)cc3)nc3ccccc3c2=O)cc1OC (stereo not drawn)	-1.0	.	.	.	0
CC(C)Oc1ccc(C(=O)NC(C)(C)CO)cc1	2.4	-5%	-11	-6	-9
CC(=O)c1cccc(N=Nc2c(C)[nH]c3ccccc23)c1	8.0	14%	-24	8	16
CC(Cc1ccccc1)NC(=O)Cc1ccc([N+](=O)[O-])cc1 (stereo not drawn)	-3.4	.	.	.	1
CCOc1c(C)cnc2c1c(=O)n(CC(=O)NCC1CCCO1)c(=O)n2C (stereo not drawn)	-0.5	.	.	.	1
Nc1nc(Nc2cccc(Cl)c2)nc(NCCO)c1[N+](=O)[O-]	0.2	?	.	.	82
O=c1c2ccccc2[nH]c(=S)n1CCN1CCc2ccccc2C1	5.1	-1%	.	.	-4
CCn1c(=O)cc(OCC(=O)NCc2cccs2)c2ccccc21	-2.8	-6%	.	-4	-5
CCOc1ccc(N=C(NC#N)SCC(=O)NC2CC2)cc1	3.5	91%	-25	-8	97
O=[N+]([O-])c1ccc(Oc2ccc(Oc3ccc(C(F)(F)F)cn3)cc2)nc1	.	57%	.	.	94
COc1ccc(NC(=O)c2ccc(S(=O)(=O)N(C)c3ccccc3)cc2)cn1	-2.0	-3%	.	.	-7
CCCCC(=O)NC(=S)Nc1ccccc1N1CCCCC1	5.4	38%	-21	6	60
O=C1OC(COc2ccc(Br)cc2)CN1c1ccccc1 (stereo not drawn)	-1.0	-3%	.	.	-4
CCCOc1ccccc1C(=O)Nc1ccc(S(=O)(=O)N2CCN(C)CC2)cc1	-1.3	.	.	.	-5
N#Cc1cc2c(nc1SCC(=O)N1CCCCC1)CCCCC2	0.2	-8%	-1	-11	-4
Cc1[nH]c2ccccc2c1[C@H]1[C@@H](CC#N)C1(C)C	6.1	6%	2	2	-1
COC(=O)c1sc(NC(=S)NC(=O)c2ccc(F)cc2)nc1C	-1.1	-2%	.	-5	1
CC(C)C(c1nnnn1C1CCCC1)N1CCc2ccccc21 (stereo not drawn)	-0.1	-19%	-13	0	9
CC(C)(C)NC(=O)CCSc1nnc(-c2ccco2)o1	-0.1	5%	.	5	1
Cc1[nH]c(=O)[nH]c(=S)c1C(=O)Nc1ccc(Cl)c(Cl)c1	-0.7	.	.	.	2
CN(Cc1ccccc1)S(=O)(=O)c1ccc2[nH]c(=O)ccc2c1	0.9	.	.	.	-1
COC(=O)c1cccc(NC(=O)c2ccc(OC)c(Cl)c2)c1	3.1	3%	.	0	-10
O=C(O)c1ccc(/C=N/N2CCN(Cc3ccc(Cl)cc3)CC2)cc1	.	?	.	-18	-4
O=S(=O)(Nc1ccc(F)cc1)c1ccc(NS(=O)(=O)c2cccs2)cc1	-0.3	.	.	.	-1
COc1cccc(C(=O)NC2CCN(C(=O)N3c4ccccc4Sc4ccccc43)CC2)c1	6.9	52%	-34	-32	95
CC1(C)C(=O)OC(c2cc(Br)ccc2O)C(C)(C)C1=O (stereo not drawn)	1.4	-1%	-20	17	3	Arbovirus anti repeat=7
CC(=O)Nc1ccc(N(C(=O)c2ccco2)C(C(=O)NC2CCCCC2)c2ccccc2)cc1 (stereo not drawn)	0.2	.	.	.	-4

The final 6 entries of the section before are carried over, then new ones follow:
SMILES	RecA splice inh	Mtb growth	YopH inh	Arbovirus anti	Mtb bLac sens	others
COC(=O)c1cccc(NC(=O)c2ccc(OC)c(Cl)c2)c1	3.1	3%	.	0	-10
O=C(O)c1ccc(/C=N/N2CCN(Cc3ccc(Cl)cc3)CC2)cc1	.	?	.	-18	-4
O=S(=O)(Nc1ccc(F)cc1)c1ccc(NS(=O)(=O)c2cccs2)cc1	-0.3	.	.	.	-1
COc1cccc(C(=O)NC2CCN(C(=O)N3c4ccccc4Sc4ccccc43)CC2)c1	6.9	52%	-34	-32	95
CC1(C)C(=O)OC(c2cc(Br)ccc2O)C(C)(C)C1=O (stereo not drawn)	1.4	-1%	-20	17	3	Arbovirus anti repeat=7
CC(=O)Nc1ccc(N(C(=O)c2ccco2)C(C(=O)NC2CCCCC2)c2ccccc2)cc1 (stereo not drawn)	0.2	.	.	.	-4
Cc1ccc(CN2CCC(CNC(=O)c3ccc(NC(=O)C4=CSCCO4)cc3)CC2)cc1	-4.7	.	.	.	8
S=c1[nH]c2cc3c(cc2[nH]1)OCCO3	-0.3	-3%	.	.	-8
Cc1ccccc1-c1noc(-c2ccccc2C(=O)O)n1	-1.4	1%	.	.	2
O=C1CC(c2cccnc2)=NN1c1ccccc1	64*	3%	.	1	-6
O=C(Nc1ccc(/C=C/c2nc3ccccc3o2)cc1)c1c(F)cccc1F	0.2	28%	-29	-23	88
COC(=O)c1ccc(NC(=O)CSc2nn3c(=O)c(C)nnc3s2)cc1	2.6	.	.	.	?
O=C(O)CC/C(=C\c1cc([N+](=O)[O-])ccc1Cl)c1nc2ccccc2s1	2.6	-3%	-14	-8	-4
O=C(NNc1nc(-c2ccc(F)cc2)cs1)c1ccccc1	0.8	?	.	-28	23
CC(=NCCCn1ccnc1)C1=C(O)c2ccccc2C1=O	1.7	-5%	-40	9	1
CCOc1ccccc1C(=O)NN1CCOCC1	-2.3	.	.	.	0
COc1ccccc1NC(=O)C1CCCN(c2cnccn2)C1 (stereo not drawn)	1.8	.	.	.	0
Cc1nn(CC(=O)NC2CCC(C)CC2)c(=O)c(C#N)c1C (stereo not drawn)	6.4	.	.	.	-4

Compounds shown so far that have a furan ring, fused or not:
SMILES	RecA splice inh	Mtb growth	YopH inh	Arbovirus anti	Mtb bLac sens	others
N#Cc1nc(-c2ccco2)oc1NCc1ccc(F)cc1	1.3	14%	-55	10	-8
CC(C)(C)NC(=O)CCSc1nnc(-c2ccco2)o1	-0.1	5%	.	5	1
CC(=O)Nc1ccc(N(C(=O)c2ccco2)C(C(=O)NC2CCCCC2)c2ccccc2)cc1 (stereo not drawn)	0.2	.	.	.	-4

(listing goes on)
SMILES	RecA splice inh	Mtb growth	YopH inh	Arbovirus anti	Mtb bLac sens	others
COc1ccc(C(=O)OCC(=O)Nc2cccc(C(C)=O)c2)c(OC)c1OC	-0.4	.	.	.	-1
Cc1cc(-c2ccc3ccccc3c2)n2ncnc2n1	4.2	-3%	.	4	15
COc1ccccc1C(c1nnnn1C1CCCC1)N1CCN2CCCC2C1 (stereo not drawn)	1.7	-8%	-56	3	1
O=C(Cn1cnc2sc3c(c2c1=O)CCCC3)NCC(=O)Nc1c(F)cc(F)cc1Br	-0.4	.	.	.	-1
O=C(CSc1nnc(SCc2ccc(Cl)cc2)s1)c1ccc2c(c1)OCO2	3.4	7%	-29	-19	100
COc1ccc(C(=O)N2CCN(Cc3ccccc3)CC2)cc1[N+](=O)[O-]	-1.2	.	.	.	-2
CCn1c(=O)c2cc(C(=O)N3CCOCC3)sc2c2ccccc21	1.4	3%	-17	1	56	Arbovirus anti repeat=-6
COc1ccccc1C(CNC(=O)CCNC(=O)c1ccccc1Cl)N1CCCC1 (stereo not drawn)	-2.7	.	.	.	-4
O=C(NC(=S)NCCC1=CCCCC1)c1cncc(Br)c1	2.9	13%	-28	2	5
O=C(Nc1ccc(O)c2c(=O)cc(-c3cccc(Cl)c3)oc12)c1ccc(F)cc1	-2.0	-2%	.	.	-6
COc1ccc(C(=O)NCC2(c3ccccc3)CCOCC2)cc1[N+](=O)[O-]	-1.2	-3%	-4	1	-6
Cc1cc(C(=O)NN=C(Cc2ccccc2)Cc2ccccc2)c(C)o1	-0.5	2%	-26	-1	-3

Some of these compounds in order of length of the SMILES, smallest number first:
SMILES	RecA splice inh	Mtb growth	YopH inh	Arbovirus anti	Mtb bLac sens	others
Cc1cc(-c2ccc3ccccc3c2)n2ncnc2n1	4.2	-3%	.	4	15
O=C(NC(=S)NCCC1=CCCCC1)c1cncc(Br)c1	2.9	13%	-28	2	5
O=S(=O)(Nc1ccc(F)cc1)c1ccc(NS(=O)(=O)c2cccs2)cc1	-0.3	.	.	.	-1

The listing picks up with the 2 entries that preceded the break.
SMILES	RecA splice inh	Mtb growth	YopH inh	Arbovirus anti	Mtb bLac sens	others
COc1ccc(C(=O)NCC2(c3ccccc3)CCOCC2)cc1[N+](=O)[O-]	-1.2	-3%	-4	1	-6
Cc1cc(C(=O)NN=C(Cc2ccccc2)Cc2ccccc2)c(C)o1	-0.5	2%	-26	-1	-3
CC(C)(C)NC(=O)NC(=O)CN1CCCc2ccccc21	-1.2	-8%	.	2	5
O=C(CCc1nnc2ccc(NCc3ccco3)nn12)Nc1ccc(F)cc1	-1.0	.	.	.	1
CC(Sc1nc(N2CCOCC2)c2c(c1C#N)CC(C)(C)OC2)C(=O)O (stereo not drawn)	-2.1	.	.	.	-1
Cc1ccnc(NS(=O)(=O)c2ccc(NS(=O)(=O)c3ccc([N+](=O)[O-])cc3)cc2)n1	-0.2	.	.	.	-2
Cc1cc(C)n2nc(-c3ccco3)nc2n1	-1.7	-1%	.	6	5
CCOc1cc(C2C3=C(CC(C)(C)CC3=O)OC3=C2C(=O)CC(C)(C)C3)cc([N+](=O)[O-])c1O	1.1	2%	.	7	-2
N/C(COc1cccc(Cl)c1)=N\NS(=O)(=O)c1ccccc1	3.8	-11%	-45	4	1
COc1ccc(CN(Cc2ccccn2)C(=O)CN2C(=O)COc3ccccc32)cc1	10	2%	-42	-5	-2
